Bioassay records (PubChem)
ClpP mod: qHTS Assay for Activators of ClpP. Potency, µM (top dose mostly 57.5 µM), for inactives: at the highest dose activity change, negative = active. AID 651965, 2013. 340,000 compounds, 1.9% hits. purified B. subtilis ClpP, FRET peptide cleavage, 20 min. ATP-dependent Clp protease proteolytic subunit (Bacillus subtilis (strain 168)), P80244; active = well fitted falling curve with a large enough effect; inconclusive = small, poorly fitted or top-dose-only effect; inactive = no such curve, though single readings can be large or run the other way; also: potency is read from the fitted curve at half-maximal effect; the source files actives as falling curves though it sought activators and does not explain the sign; nearly all actives have a fitted effect of over 65% in size; many hits overshoot -100%
Target sequence (P80244 whole entry, looked up): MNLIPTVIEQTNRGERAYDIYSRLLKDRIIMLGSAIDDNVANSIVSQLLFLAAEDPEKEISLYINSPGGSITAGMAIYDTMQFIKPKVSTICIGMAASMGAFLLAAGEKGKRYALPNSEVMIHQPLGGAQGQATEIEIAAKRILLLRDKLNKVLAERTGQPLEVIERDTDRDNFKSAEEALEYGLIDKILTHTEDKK
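Buffer: 100 mM Tris/HCl pH8, 100 mM KCl, 0.05% low protease BSA, 2.5% glycerol, 0.01% Tween-20. ClpP 10 microg/mL final; 20 min RT; delta FRET normalized to ADEP and DMSO controls.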
Sfp PPTase inh: Sfp phosphopantetheinyl transferase inhibition. Potency, µM, inactives show max response, negative = inhibition, usual class: inhibitors. Q9F4F7. 310,000 compounds, 3.5% hits. Biochemical Sfp PPTase activity, qHTS; active = well fitted inhibition curve with a large enough effect; inconclusive = small, poorly fitted or top-dose-only effect, or another doubt; inactive = no such curve, though single readings can be large or run the other way;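 also: the enzyme is Sfp with the accession as filed and its product quenches rhodamine fluorescence; potency is read from the fitted curve at half-maximal effect; 0% = enzyme reaction without inhibitor and -100% = no enzyme wells; top concentration of the series not given in the record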
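With Hepes-Na pH 7.6 buffer containing 10 mM MgCl2, Sfp (15 nM) modified BHQ-2-YbbR (12.5 uM) using rhodamine-CoA (5 uM). Two reads 30 minutes apart at 525/598 nm yielded each well's rate.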
gsp ag: gsp mutant agonism | 340,000 compounds, 0.13% hits | Potency, µM (doses to about 76.9 µM), without a hit: top-dose activation (cAMP increase), hits mostly activators | gsp mutant cells, cAMP HTRF, 30 min; control for the full effect not named in the record; active = well fitted activation curve with a large enough effect; inconclusive = small, poorly fitted or top-dose-only effect, or another doubt; inactive = no such curve, though single readings can be large or run the other way; cell line not stated here;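 also: phosphodiesterase inhibitor Ro 20-1724 added with compounds to block cAMP breakdown; potency is read from the fitted curve at half-maximal effect; nearly all actives have a fitted effect of over 60% in size; about a fifth of the inactives were tested at one dose only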
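Cells stably selected in G418 were plated at 2000/well, grown 16-24 hr, then given compounds in DMSO with the PDE inhibitor […] (300 uM solution added) for 30 min at 37C; cAMP was read by HTRF.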
TRPV1 potentiator: human TRPV1 potentiation | potentiation, % at 8.33 µM | 320,000 compounds, 0.02% hits | TRPV1-expressing cells, Fluo-8 calcium influx, capsaicin EC20 potentiation; host cell line not named in the record; control for the full effect not named in the record | Q8NER1 | AID 540277; active means potentiation above 80%; inconclusive means 30% to 80%; inactive means below 30%; also: 0% is about no effect
Target sequence (Q8NER1 whole entry, looked up): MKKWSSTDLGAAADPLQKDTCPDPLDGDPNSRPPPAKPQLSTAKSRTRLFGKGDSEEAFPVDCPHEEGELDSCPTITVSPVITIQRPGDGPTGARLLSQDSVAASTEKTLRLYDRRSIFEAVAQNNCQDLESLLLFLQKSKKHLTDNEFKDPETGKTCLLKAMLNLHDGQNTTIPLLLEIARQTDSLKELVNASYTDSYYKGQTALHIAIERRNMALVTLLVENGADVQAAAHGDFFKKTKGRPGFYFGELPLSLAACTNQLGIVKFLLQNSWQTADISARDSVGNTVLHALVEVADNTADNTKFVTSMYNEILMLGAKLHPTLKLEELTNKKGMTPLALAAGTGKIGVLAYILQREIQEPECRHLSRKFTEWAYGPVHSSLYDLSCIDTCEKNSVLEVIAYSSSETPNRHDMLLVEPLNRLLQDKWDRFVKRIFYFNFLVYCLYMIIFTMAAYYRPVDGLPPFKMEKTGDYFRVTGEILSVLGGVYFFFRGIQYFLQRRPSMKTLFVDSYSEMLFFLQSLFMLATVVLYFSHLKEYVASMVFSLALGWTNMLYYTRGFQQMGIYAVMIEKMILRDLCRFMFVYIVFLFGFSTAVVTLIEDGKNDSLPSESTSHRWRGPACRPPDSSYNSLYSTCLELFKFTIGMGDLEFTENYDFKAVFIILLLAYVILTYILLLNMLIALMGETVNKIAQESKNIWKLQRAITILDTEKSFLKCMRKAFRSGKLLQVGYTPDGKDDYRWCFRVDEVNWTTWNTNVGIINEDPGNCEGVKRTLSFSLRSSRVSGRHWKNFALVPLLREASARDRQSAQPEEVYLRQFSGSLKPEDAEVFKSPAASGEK
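TRPV1-expressing cells were cultured overnight at 35.5C and loaded with Fluo-8 calcium dye for 40 to 90 min at room temperature. After a 10 s baseline, compound was added and calcium influx was read kinetically for 3 min (ex 480/em 520 nm).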
Menin-MLL FL inh: inhibitors of human menin-MLL interaction, wild-type MLL peptide. FP activity change, % at 61.4 µM. 290,000 tested, under 10 active. Fluorescence polarization, fluorescein-MLL peptide displacement from menin. AID 1766; inconclusive = falling polarisation curve, or a change in total fluorescence; inactive = total fluorescence flat and polarisation flat or rising; no compound was filed as active; the % refers to the polarisation; negative = inhibition;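 also: % of control where 0% means no effect; inhibitors lower the polarisation; unlabelled MLL peptide was the positive control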
gsp antag: gsp mutant antagonism | Potency, µM (highest dose often 76.9 µM), for inactives: at the top dose activity change, negative = inhibition, usual class: inhibitors | gsp-mutant cells, cAMP HTRF, 30 min; control for the full effect not named in the record | 340,000 compounds, 0.4% hits | AID 624288; active = falling curve of any shape with a large fitted effect; inconclusive = falling curve, mostly with a smaller effect; inactive = flat or rising curve; cell line not stated here;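 also: intracellular cAMP measured with PDE inhibitor Ro 20-1724 present during compound exposure; potency is read from the fitted curve at half-maximal effect; % is scaled to controls: 0 for no effect and ±100 for the full control effect; nearly all actives have a fitted effect of over 65% in size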
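HTRF cAMP read-out (cAMP-d2 plus anti-cAMP antibody-K in lysis buffer, 30 min RT). Before lysis, cells are exposed to compounds with […] for 30 min at 37C in DPBS containing Ca/Mg, BSA and Tween 20.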
CtBP-E1A inh: inhibitors of CtBP/E1A interaction; AlphaScreen GST-E1A/His-CtBP binding, 1536-well; stronger effect = lower value; control for the full effect not named in the record; activity change, % (concentration not given with the values); 340,000 compounds, 0.49% hits; in the data active means activity change below about -65%; inconclusive means about -30% to -65%; inactive means above about -30%; also: % is scaled to controls: 0 for no effect and ±100 for the full control effect
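Protein mix (5X: 125 nM each GST-E1A, His-CtBP) was incubated with pinned compound 2 h at 37 deg C in dark, in 50 mM Tris pH 8.0 buffer with 300 mM NaCl. Glutathione donor and nickel acceptor beads followed; AlphaScreen signal read after 1 h.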
Starred values were filed as active, the others as inactive; ? = inconclusive; . = no result given; [ ] = another dose, or the depositor's remark. The order is random; about 5.3% have a hit in one of these screens.

SMILES	ClpP mod	Sfp PPTase inh	gsp ag	TRPV1 potentiator	Menin-MLL FL inh	gsp antag	CtBP-E1A inh
CCOc1cc(/C=C2\CCn3c2nc2cc(Cl)ccc2c3=O)ccc1O	.	-23%	-10%[15.4 µM]	-3	15	-28%	5
Cc1ccc(S(=O)(=O)N2CCC(C(=O)C3C(=O)CCCC3=O)CC2)cc1	.	18%	13%[15.4 µM]	3	-5.5	-9%	23
COc1ccc(NC(C)=O)cc1NC(=O)c1ccc(Cl)cc1	0.3%	29%	6%	3	1.0	1%	.
COc1cc(C2Nc3ccccc3C(=O)N2c2ccccc2OC)ccc1O (stereo not drawn)	32µM*	-10%	8%	-6	-2.7	5%	8
Nc1ccccc1Sc1ccc(C(F)(F)F)cc1[N+](=O)[O-]	.	4%	4%[15.4 µM]	-11	-1.0	-5%	-10
O=C(COC(=O)C12CC3CC(CC(Cl)(C3)C1)C2)Nc1ccc2[nH]c(=O)[nH]c2c1	-0.9%	.	-2%	-11	.	5%	-4
CCCc1nnc(SCC(=O)N2C(C)CCCC2C)n1CC (stereo not drawn)	-0.3%	-24%	-40%[inhibitor]	7	-3.1	5%	-3
O=C(CCCOc1ccccc1)NN1C(=O)NC2(CCCCC2)C1=O	-1.4%	.	-9%[15.4 µM]	1	.	19%	8
COc1cc2ccc(C(C)=NOC(C)=O)cc2cc1OC	6.5%	.	-64%[inhibitor]	.	.	.	-3
N#CCSc1nc2ccc(N3CCOCC3)cc2c(=O)n1CCc1ccccc1	?	?	0%	15	1.3	-9%	2
O=C(Nc1ccccc1C(=O)O)c1cc(S(=O)(=O)N2CCOCC2)c(Br)s1	-2.8%	9%	-1%[15.4 µM]	-14	6.2	-23%	-23
CC1(C)Cc2cccc(OCC(O)CNCc3ccccn3)c2O1 (stereo not drawn)	-3.8%	0%	-1%	-3	-0.3	-2%	?
CCC(CC)c1nn2c(N)c(/C=C3\C(C)=Nc4ccccc43)c(=O)nc2s1	.	4%	-10%[15.4 µM]	?	12	-15%	-14
CC(C)(C)C(=O)NC1(C(F)(F)F)C(=O)Nc2c1c(=O)[nH]c(=O)n2Cc1ccco1 (stereo not drawn)	-0.1%	21%	-9%	0	3.6	15%	3
COCCN(C(=O)COC(=O)c1ccc(C)s1)c1c(N)n(Cc2ccccc2)c(=O)[nH]c1=O	0.6%	.	7%	9	.	-1%	3
COc1ccc(/C(C)=N/N2C(C)CCCC2C)c(OC)c1 (stereo not drawn)	0.0%	6%	-9%[15.4 µM]	-14	-0.6	5%	0
CCOC(=O)c1ccc(-c2ccc(/C=N/NC(=O)CN(c3ccccc3Cl)S(C)(=O)=O)o2)cc1	.	-12%	2%[15.4 µM]	5	15	-19%	4
Cc1sc2nc(SCc3ccccc3)n(Cc3ccco3)c(=O)c2c1C	-2.2%	-5%	?	17	0.4	2%	1
Fc1cccc(Cc2noc(CN3CCCCC3c3ccccn3)n2)c1 (stereo not drawn)	.	-8%	1%[15.4 µM]	-18	2.4	4%	10
CCCOC(=O)c1ccc(-c2c(C)noc2-c2ccc(OC)cc2O)o1	?	2%	5%	-6	2.4	32µM*	-7

Compound profiles (already shown):
`Nc1ccccc1Sc1ccc(C(F)(F)F)cc1[N+](=O)[O-]` as listed: ClpP mod = .; Sfp PPTase inh = 4%; gsp ag = 4%[15.4 µM]; TRPV1 potentiator = -11; Menin-MLL FL inh = -1.0; gsp antag = -5%; CtBP-E1A inh = -10
`O=C(CCCOc1ccccc1)NN1C(=O)NC2(CCCCC2)C1=O` as listed: ClpP mod = -1.4%; Sfp PPTase inh = .; gsp ag = -9%[15.4 µM]; TRPV1 potentiator = 1; Menin-MLL FL inh = .; gsp antag = 19%; CtBP-E1A inh = 8
`CCOC(=O)c1ccc(-c2ccc(/C=N/NC(=O)CN(c3ccccc3Cl)S(C)(=O)=O)o2)cc1` as listed: ClpP mod = .; Sfp PPTase inh = -12%; gsp ag = 2%[15.4 µM]; TRPV1 potentiator = 5; Menin-MLL FL inh = 15; gsp antag = -19%; CtBP-E1A inh = 4

Next structures follow.
SMILES	ClpP mod	Sfp PPTase inh	gsp ag	TRPV1 potentiator	Menin-MLL FL inh	gsp antag	CtBP-E1A inh
Cc1ccc(NC(=O)CN2C(=O)C(C)Oc3ccccc32)nc1 (stereo not drawn)	1.6%	15%	-11%	16	1.4	12%	8
CCC(=O)NC(=S)Nc1ccc(NC(=O)c2ccc([N+](=O)[O-])cc2)cc1	1.6%	0%	24%	-10	.	8%	-9
CC(C)(C)NCC(=Cc1ccccc1)C(=O)c1ccccc1	-1.0%	.	?	.	.	-6%	32
CCn1c(=S)sc2c(=O)n(CC(=O)Nc3cccc(OC)c3)c(C)nc21	-0.9%	4%	-12%	-3	-0.2	-4%	2
COc1ccc(CN(C(=O)CNC(=O)c2ccco2)C(C(=O)NCC2CCCO2)c2ccc(OC)c(OC)c2)cc1 (stereo not drawn)	-0.8%	13%	-8%[15.4 µM]	27	-2.2	5%	0
COc1cccc(C(=O)N2N=C(c3ccccc3)CC2(O)C(F)(F)F)c1 (stereo not drawn)	-7.2%	-6%	-3%	-6	8.5	-21%	-7
COc1ccc(CCNC(=O)c2ccc(-c3ccc([N+](=O)[O-])cc3)o2)cc1OC	-3.2%	-13%	0%	-3	4.2	32µM*	-14
COc1cc(C(O)C(=O)O)ccc1O (stereo not drawn)	1.6%	7%	.	9	3.1	2%	6
O=C(CN1CCN(Cc2ccc3c(c2)OCO3)CC1)c1c[nH]c2ccccc12	-0.7%	6%	-41%[inhibitor]	7	4.0	-1%	-5
CC(C)(C)c1ccc(C(=O)N2CCC(C(=O)c3ccccc3)CC2)cc1	-1.6%	-10%	4%[15.4 µM]	-41	3.6	-7%	3
COc1ccc(NC(=O)CSc2nccn2Cc2ccc(F)cc2)cc1	-2.3%	6%	-36%	-9	.	1%	-14
COc1ccc(-c2nnc(SCC(=O)NCc3cccs3)n2CC(C)C)cc1	-1.4%	-1%	-1%	4	-1.9	-4%	-2
COc1ccc(N(C(=O)c2cnccn2)C(C(=O)NC2CCCCC2)c2ccc(O)cc2)cc1 (stereo not drawn)	.	15%	0%	-11	-5.5	11%	2
Cc1ccc(-c2cc(C(=O)NCCCN3CCCC3)c3ccccc3n2)cc1C	.	-17%	-26%[15.4 µM]	6	.	12%	-28
COc1ccccc1NC(=O)C1=C(C)Nc2nnnn2C1c1cccc(Br)c1 (stereo not drawn)	-0.3%	-4%	-5%	3	0.4	-4%	5
O=C(NC(=S)Nc1cc([N+](=O)[O-])ccc1O)C1CC1	0.8%	-2%	17%	15	.	?	-18
COc1ccc(C(C)NC(=O)Cc2cccs2)cc1OC (stereo not drawn)	0.4%	-2%	-13%	26	.	-3%	6
Nc1nc(-c2cccnc2)nn1C(=O)CCc1ccccc1	-2.3%	.	-5%	.	.	14%	3
O=C(OCC(=O)N1CCCc2ccccc21)c1cc(Br)ccc1O	-6.7%	.	?	-4	.	6%	-7
COc1ccc(C(=O)OCc2nnc(-c3ccccc3)o2)cc1S(=O)(=O)N1CCOCC1	.	.	23%[15.4 µM]	7	.	-11%	-1

Looked up by structure from above:
SMILES	ClpP mod	Sfp PPTase inh	gsp ag	TRPV1 potentiator	Menin-MLL FL inh	gsp antag	CtBP-E1A inh
COc1ccc(-c2nnc(SCC(=O)NCc3cccs3)n2CC(C)C)cc1	-1.4%	-1%	-1%	4	-1.9	-4%	-2
COc1ccc(N(C(=O)c2cnccn2)C(C(=O)NC2CCCCC2)c2ccc(O)cc2)cc1 (stereo not drawn)	.	15%	0%	-11	-5.5	11%	2

Additional structures follow:
SMILES	ClpP mod	Sfp PPTase inh	gsp ag	TRPV1 potentiator	Menin-MLL FL inh	gsp antag	CtBP-E1A inh
O=C(CSc1ncn[nH]1)NNC(=O)c1ccccc1	.	.	-5%[15.4 µM]	-3	.	9%	8
CCC(C)CCN1C(Nc2ccccc2)=NC[C@@H]1C (stereo partly drawn)	-0.4%	7%	2%	-3	-0.2	1%	5
COc1ccc(OC)c(C(=O)CSc2nc3cccnc3n2C)c1	-3.3%	79µM*	-17%	-21	5.5	-2%	-1
Cc1ccc(C(=O)N/C(=C\c2ccccc2)C(=O)NCC2CCCO2)cc1 (stereo not drawn)	1.0%	5%	14%	-3	1.1	-2%	2
Cc1nn(S(=O)(=O)c2cccc([N+](=O)[O-])c2)c(C)c1S(=O)(=O)N1CCOCC1	-0.3%	17%	1%	3	2.2	23%	10
C=CC[C@@H](CC(=O)N[C@H](CO)Cc1ccccc1)C(=O)NCCOC(=O)[C@@H](CC=C)CC(=O)OC(C)(C)C	1.5%	.	.	.	.	1%	3
COc1ccc(S(=O)(=O)N2CCN(c3ccc(F)cc3)CC2)cc1OC	2.1%	19%	40%	-1	1.9	0%	0
C/C(=N\NC(=O)CNc1cccc(C(F)(F)F)c1)c1ccc(Br)cc1	0.8%	-5%	4%	12	0.1	-3%	-2
COc1cccc(-n2c(CCn3nc(C)c([N+](=O)[O-])c3C)n[nH]c2=S)c1	-5.6%	13%	29%	6	5.9	1%	4
CC1CCCC(C(=O)O)N1C(=O)CCSSCCC(=O)N1C(C)CCCC1C(=O)O (stereo not drawn)	-1.6%	4%	2%	21	2.9	6%	3
O=C(Cn1cnc2c(OCc3ccccc3)ncnc21)NCCCn1ccnc1	0.0%	.	.	.	.	8%	5

Filtered by structure: the entries above with a CF3 group (4)
SMILES	ClpP mod	Sfp PPTase inh	gsp ag	TRPV1 potentiator	Menin-MLL FL inh	gsp antag	CtBP-E1A inh
Nc1ccccc1Sc1ccc(C(F)(F)F)cc1[N+](=O)[O-]	.	4%	4%[15.4 µM]	-11	-1.0	-5%	-10
CC(C)(C)C(=O)NC1(C(F)(F)F)C(=O)Nc2c1c(=O)[nH]c(=O)n2Cc1ccco1 (stereo not drawn)	-0.1%	21%	-9%	0	3.6	15%	3
COc1cccc(C(=O)N2N=C(c3ccccc3)CC2(O)C(F)(F)F)c1 (stereo not drawn)	-7.2%	-6%	-3%	-6	8.5	-21%	-7
C/C(=N\NC(=O)CNc1cccc(C(F)(F)F)c1)c1ccc(Br)cc1	0.8%	-5%	4%	12	0.1	-3%	-2
